Bioassay records as filed in PubChem.
GSK3A inh – human GSK-3 alpha kinase inhibition; P49840; ADP-Glo luminescence, 60 min; inhibition, % at 10 µM; hit rate 0.1% among 320,000;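 in the data active = inhibition above about 50%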;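 note: GST-tagged GSK-3 alpha with peptide substrate and 25 µM ATP; 0% = DMSO neutral wells and 100% = GW8510 positive control wells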
Target sequence (P49840 whole entry, looked up): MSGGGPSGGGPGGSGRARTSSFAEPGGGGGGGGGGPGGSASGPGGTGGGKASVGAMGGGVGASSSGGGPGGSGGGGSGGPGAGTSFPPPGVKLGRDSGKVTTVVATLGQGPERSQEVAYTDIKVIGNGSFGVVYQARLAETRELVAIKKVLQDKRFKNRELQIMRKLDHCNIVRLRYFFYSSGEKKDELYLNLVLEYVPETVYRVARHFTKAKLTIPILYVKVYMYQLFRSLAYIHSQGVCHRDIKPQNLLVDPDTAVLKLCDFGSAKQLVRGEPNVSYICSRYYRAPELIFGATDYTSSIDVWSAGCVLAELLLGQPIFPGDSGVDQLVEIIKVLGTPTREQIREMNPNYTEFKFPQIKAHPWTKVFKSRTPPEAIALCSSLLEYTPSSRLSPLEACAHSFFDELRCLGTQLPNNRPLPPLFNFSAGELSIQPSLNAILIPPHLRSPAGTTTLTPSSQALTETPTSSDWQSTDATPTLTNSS
Dyrk1A ADPGlo – blocks rat Dyrk1A kinase activity | ADP-Glo luminescence, NFATc1 peptide | inhibition, % at 12.5 µM | hit rate 0.43% among 310,000 | AID 504441; in the data active = inhibition above about 50%;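 note: plate controls were vehicle with enzyme for no effect and no enzyme for full effect; many of its hits are not listed in these tables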
GSK3beta inhib – human GSK3beta kinase inhibition; P49841; GST-GSK3beta kinase, ADP-Glo luminescence, 60 min; stronger effect = lower value; activity score (negative = inhibition), % at 10 µM; hit rate 0.038% among 300,000; AID 2097;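 active = more than half of replicate wells score below -50%, meaning over 50% inhibition versus plate controls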;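 note: 0% = median DMSO wells and -100% = median GW8510 positive control wells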
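Test system: GST-fused GSK3beta enzyme, cell-free | Quantity: 1.6 ng GST-GSK3beta enzyme per well | Reagent: 25 µM ATP with peptide substrate | Schedule: 60 min enzyme reaction, room temperature | Signal: Luminescent ADP-Glo measurement of ADP formed | Read-out basis: Score relative to plate controls | Control set: DMSO and 20 µM GW8510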
Active calls of the source: *; . = not tested or not shown. This is a subset, so the mix of outcomes need not match the whole.

Preview:
[1] C=C1/C(=C\C=C2/CCC[C@]3(C)[C@@H]([C@H](C)CCCC(C)(C)O)CC[C@@H]23)C[C@@H](O)C[C@@H]1O
[2] COc1cc(C2c3cc4c(cc3C(OC3OC5COC(c6cccs6)OC5C(O)C3O)C3COC(=O)C23)OCO4)cc(OC)c1O (stereo not drawn)
[3] COc1cccc2c1C(=O)c1c(O)c3c(c(O)c1C2=O)C[C@@](O)(C(=O)CO)C[C@@H]3OC1CC(N)C(O)C(C)O1 (stereo partly drawn)

assay / compound	1	2	3
GSK3A inh	-7	0	.
Dyrk1A ADPGlo	.	5	8
GSK3beta inhib	4	-1	.

This part in full, from the first entry:
[1] C=C1/C(=C\C=C2/CCC[C@]3(C)[C@@H]([C@H](C)CCCC(C)(C)O)CC[C@@H]23)C[C@@H](O)C[C@@H]1O
[2] COc1cc(C2c3cc4c(cc3C(OC3OC5COC(c6cccs6)OC5C(O)C3O)C3COC(=O)C23)OCO4)cc(OC)c1O (stereo not drawn)
[3] COc1cccc2c1C(=O)c1c(O)c3c(c(O)c1C2=O)C[C@@](O)(C(=O)CO)C[C@@H]3OC1CC(N)C(O)C(C)O1 (stereo partly drawn)
[4] CC[C@H]1CN2CCc3cc(OC)c(OC)cc3C2C[C@@H]1C[C@H]1NCCc2cc(OC)c(OC)cc21 (stereo partly drawn)
[5] Cc1ccc(S(=O)(=O)n2c(C)nc3ccccc32)cc1
[6] COc1cccc(C(=O)Nc2cc3c(cc2N2CCOCC2)n(C)c(=O)n3C)c1

assay / compound	1	2	3	4	5	6
GSK3A inh	-7	0	.	.	0	4
Dyrk1A ADPGlo	.	5	8	-2	-1	3
GSK3beta inhib	4	-1	.	.	-2	-20

[7] CN1CCN(C(=O)c2ccc(NS(=O)(=O)c3ccccc3)cc2)CC1
[8] COc1cccc2c1C(=O)c1c(O)c3c(c(O)c1C2=O)C[C@@](O)(C(=O)CO)C[C@@H]3O[C@H]1C[C@H](N)[C@H](O)[C@H](C)O1
[9] CC[C@H]1CN2CCc3cc(OC)c(OC)cc3[C@@H]2C[C@@H]1C[C@H]1NCCc2cc(OC)c(OC)cc21
[10] CC(=O)O[C@H]1C(=O)[C@]2(C)[C@H]([C@H](OC(=O)c3ccccc3)[C@]3(O)C[C@H](OC(=O)[C@H](O)[C@@H](NC(=O)c4ccccc4)c4ccccc4)C(C)=C1C3(C)C)[C@]1(OC(C)=O)CO[C@@H]1C[C@@H]2O
[11] N#Cc1ccc(CNC(=O)N2CCOCC2)cc1
[12] CN[C@@H]1CC[C@H](c2ccc(Cl)c(Cl)c2)c2ccccc21

assay / compound	7	8	9	10	11	12
GSK3A inh	-2	2	-2	2	-3	4
Dyrk1A ADPGlo	-5	8	8	5	1	-6
GSK3beta inhib	1	-7	-3	1	1	-7

[13] NC(=O)C1CCN(C(=O)Nc2ccccc2)CC1
[14] CN/C(=C\[N+](=O)[O-])NCCSCc1ccc(CN(C)C)o1
[15] Nc1ccn([C@@H]2O[C@H](CO)[C@@H](O)[C@H]2O)c(=O)n1
[16] O=C(Nc1nc2cc3c(cc2s1)OCCO3)C1=COCCO1
[17] Cc1cccc(CCN2CCC(C(=O)c3ccc(NS(C)(=O)=O)cc3)CC2)n1
[18] O=c1[nH]cc(F)c(=O)[nH]1

assay / compound	13	14	15	16	17	18
GSK3A inh	-1	-1	.	4	4	-3
Dyrk1A ADPGlo	2	10	-5	23	.	3
GSK3beta inhib	-3	.	.	0	1	1

Reformatted with each value named: 3 of the compounds above
(3) COc1cccc2c1C(=O)c1c(O)c3c(c(O)c1C2=O)C[C@@](O)(C(=O)CO)C[C@@H]3OC1CC(N)C(O)C(C)O1 (stereo partly drawn)
  GSK3A inh = .	Dyrk1A ADPGlo = 8	GSK3beta inhib = .

(4) CC[C@H]1CN2CCc3cc(OC)c(OC)cc3C2C[C@@H]1C[C@H]1NCCc2cc(OC)c(OC)cc21 (stereo partly drawn)
  GSK3A inh = .	Dyrk1A ADPGlo = -2	GSK3beta inhib = .

(5) Cc1ccc(S(=O)(=O)n2c(C)nc3ccccc32)cc1
  GSK3A inh = 0	Dyrk1A ADPGlo = -1	GSK3beta inhib = -2

The list goes on:
[19] C[C@@H]1O[C@@H]1P(=O)(O)O
[20] O=C(N/N=C/c1ccc(Sc2ccccn2)o1)c1cccc([N+](=O)[O-])c1
[21] c1ccc(-c2ccc(-c3nc(-c4ccccn4)no3)cc2)cc1
[22] NS(=O)(=O)c1ccc(NC(=O)Nc2ccc(Cl)cc2)cc1
[23] Cc1ccc(NC(=O)c2sccc2SCc2cccc(C(F)(F)F)c2)cc1
[24] NC(N)=Nc1nc(C2COc3ccccc3O2)cs1 (stereo not drawn)
[25] O=C(Nc1ccccc1)C(=O)Nc1ccccn1
[26] COCc1cc(C)nc(SCC(=O)c2ccc(O)c(O)c2)c1C#N
[27] CC(=O)[C@]1(O)Cc2c(O)c3c(c(O)c2[C@@H](O[C@H]2C[C@H](N)[C@H](O)[C@H](C)O2)C1)C(=O)c1ccccc1C3=O

assay / compound	19	20	21	22	23	24	25	26	27
GSK3A inh	1	3	3	-1	-3	1	0	-10	1
Dyrk1A ADPGlo	7	9	10	3	0	0	11	-1	.
GSK3beta inhib	.	0	-5	-4	8	-25	-2	0	-6
